StopGo reporter – FMDV 2A StopGo reporter, luciferase signal | AID 1159524 | human cells with a luciferase reporter of 2A StopGo recoding; control for the full effect not named in the record | 1.2% of 410,000 active | Potency, µM (highest dose often 57.9 µM), for inactives: at the top dose signal change, negative = less light; active = well fitted falling curve with a large enough effect; inconclusive = small, poorly fitted or top-dose-only effect; inactive = no such curve, though single readings can be large or run the other way; tested in HEK293T cells; also: % is scaled to controls: 0 for no effect and ±100 for the full control effect; nearly all actives have a fitted effect of over 45% in size; luciferase light after 4 h
Lassa entry inh – blocks Lassa virus binding to or entry into cells; Lassa virus pseudotype entry inhibition, cell reporter; control for the full effect not named in the record; Potency, µM (series often up to 37.9 µM), without a hit: top-dose activity change, negative = inhibition, actives largely listed as inhibitors; 1.2% of 300,000 active; active means well fitted inhibition curve with a large enough effect; inconclusive means small, poorly fitted or top-dose-only effect, or effect the other way; inactive means flat fitted curve, though single readings scatter; tested in HEK293 cells; also: % is scaled to controls: 0 for no effect and ±100 for the full control effect; nearly all actives have a fitted effect of over 50% in size; luciferase read-out
Cruzain inh noDet – cruzain (T. cruzi) inhibition without detergent | Potency, µM, for the others: max response, negative = inhibition, most hits filed as inhibitors | P25779 | purified cruzain, Z-FR-AMC fluorescence, no detergent | 2.3% of 200,000 active;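 also: plate controls were enzyme without inhibitor for no effect and buffer without enzyme for full effect; nearly all actives have a fitted effect of over 40% in size; top concentration of the series not given in the record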
Target sequence (P25779 123-467 limits assumed): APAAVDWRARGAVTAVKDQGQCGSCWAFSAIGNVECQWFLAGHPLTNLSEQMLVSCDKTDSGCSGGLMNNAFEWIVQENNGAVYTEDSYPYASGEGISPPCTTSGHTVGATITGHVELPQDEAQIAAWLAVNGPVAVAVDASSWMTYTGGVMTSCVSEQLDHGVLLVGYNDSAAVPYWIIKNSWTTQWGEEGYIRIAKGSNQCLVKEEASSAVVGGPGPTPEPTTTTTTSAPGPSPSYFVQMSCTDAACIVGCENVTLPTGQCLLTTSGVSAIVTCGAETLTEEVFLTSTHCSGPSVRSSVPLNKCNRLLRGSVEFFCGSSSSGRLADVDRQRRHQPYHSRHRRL
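Purified cruzain at 1.5 nM, pre-incubated 15 min with compound at room temperature in 100 mM sodium acetate pH 5.5, 5 mM DTT, 0.00005% Triton X-100. Reaction started with 2 uM Z-FR-AMC; AMC fluorescence increase over 60 s gives rate.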
NS1 inh – influenza NS1 inhibition; S. cerevisiae slowed by influenza A NS1, growth recovery by OD600; Potency, µM (top dose mostly 46.1 µM), for inactives: at the highest dose activity, positive = more growth; 0.4% of 270,000 active; active means well fitted rising curve with a large enough effect; inconclusive means small, poorly fitted or top-dose-only effect; inactive means no such curve, though single readings can be large or run the other way; also: nearly all actives have a fitted effect of over 50% in size
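In this qHTS, NS1 from influenza A is expressed in budding yeast, where it slows growth. Cells are switched from glucose to 2% galactose medium (pH 6.0, -URA), treated with compound, and growth recovery is read at OD600.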
RE007 growth inh – less growth of the S. pombe RE007 Vpr strain | 0.21% of 360,000 active | S. pombe RE007 Vpr strain, BacTiter-Glo ATP luminescence, 24 h; control for the full effect not named in the record | Potency, µM (highest dose often 92.2 µM), for inactives: at the highest dose activity change, negative = less growth; active = well fitted falling curve with a large enough effect; inconclusive = small, poorly fitted or top-dose-only effect; inactive = no such curve, though single readings can be large or run the other way;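 also: % is scaled to controls: 0 for no effect and ±100 for the full control effect; nearly all actives have a fitted effect of over 50% in size; the assay follows cell death caused by Vpr and the record does not say whether a fall means rescue or toxicity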
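Fission yeast strain RE007, carrying one chromosomally integrated HIV-1 vpr copy, was seeded at OD 0.01 in PMG+AL medium with 23 nL pinned compound. After 24 h at 30 °C and 99% humidity, viability was read by BacTiter-Glo luminescence.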
Marburg entry inh – inhibitors of Marburg virus binding or cell entry. 1.8% of 300,000 active. Marburg virus pseudotyped entry inhibition, cell reporter; control for the full effect not named in the record; about a third of the inactives were read at about 46 µM. AID 540276. Potency, µM (titrated, usually from 37.8 µM), for inactives: at the top dose activity change, negative = inhibition, hits mostly inhibitors; active = well fitted inhibition curve with a large enough effect; inconclusive = small, poorly fitted or top-dose-only effect, or effect the other way; inactive = flat fitted curve, though single readings scatter; tested in HEK293 cells; about a fifth of its hits are not listed in these tables; also: % is scaled to controls: 0 for no effect and ±100 for the full control effect; luciferase read-out
Cruzain Triton – cruzain (T. cruzi) inhibition with detergent. AID 1478. P25779. purified cruzain, Z-FR-AMC fluorescence, 0.01% Triton. 0.43% of 200,000 active. Potency, µM, for inactives: max response, negative = inhibition, most hits filed as inhibitors;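 also: plate controls were neutral wells for no effect and buffer without enzyme for full effect; nearly all actives have a fitted effect of over 40% in size; top concentration of the series not given in the record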
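Detergent-containing run (0.01% Triton X-100) in acetate buffer pH 5.5 with 5 mM DTT: enzyme at 1.5 nM final, 15 min compound preincubation at room temperature, then 2 uM Z-FR-AMC substrate. Activity taken as 60 s fluorescence increase at 360/450 nm.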
SARS PLpro yeast – SARS-CoV PLP inhibition in yeast | S. cerevisiae expressing SARS-CoV PLpro, growth rescue; control for the full effect not named in the record | Potency, µM (series often up to 32.9 µM), without a hit: at the highest dose activity, positive = growth rescue | AID 485353 | 0.19% of 330,000 active; active means well fitted rising curve with a large enough effect; inconclusive means small, poorly fitted or top-dose-only effect; inactive means no such curve, though single readings can be large or run the other way; also: 0% is about no effect; nearly all actives have a fitted effect of over 55% in size; growth read by luminescence after 48 h
Active calls of the source: *; ? = inconclusive; . = not tested or not shown; & = joins results of further samples; [ ] = dose if it differs, or a comment. Unless noted, calls follow the shape of the dose curve; as a rule, active = well fitted curve in the direction sought with a large enough effect; inconclusive = small, poorly fitted or top-dose-only effect, or another doubt; inactive = no such curve, though single readings can be large; an effect the other way counts as inactive or inconclusive. Potency is read from the fitted curve at half-maximal effect.

SMILES	StopGo reporter	Lassa entry inh	Cruzain inh noDet	NS1 inh	RE007 growth inh	Marburg entry inh	Cruzain Triton	SARS PLpro yeast
CCc1cccc(NC(=O)c2ccc(CN3C(=O)C(C)=C(c4ccc(OC)cc4)S3(=O)=O)cc2)c1	-16%	?	25µM*	.	.	.	-7.1%	.
COc1ccc(C(CC(=O)NCCCN2CCOCC2)NS(=O)(=O)c2ccc(C)cc2)cc1 (stereo unspecified)	-12%	9%	11%	-2%	-3%	-1%&20%	7.9%	-4%
CCN(CC)CCOC(=O)c1ccccc1Br	8%	-2%[46.1 µM]	.	.	12%	?	.	-6%
CCN(CC)C(=O)c1c(NC(=O)c2cccc(C)c2)sc2c1CCC(C)C2 (stereo unspecified)	32%[activator]	?	1%	.	.	-4%[46.1 µM]	-1.5%	.
Cc1ccc(C)c(NS(=O)(=O)c2cc(C(=O)NCc3ccccn3)ccc2C)c1	41%[activator]	6%	.	-20%	-7%	-1%	.	9%
Cc1ccsc1/C=N/NC(=O)Nc1ccccc1	14%	-14%[46.1 µM]	.	.	-11%	?	.	-2%
c1ccc(Cc2nnc3sc(C4COc5ccccc5O4)nn23)cc1 (stereo unspecified)	10%	25%[14.3 µM]	-10%	-42%	?	4%	-8.7%	-4%
O=C(Nc1ccc(C(=O)N2CCCC2)cc1)Nc1ccc(Cl)cc1Cl	3%	?	?	5%	-14%	3%	1.5%	-1%
O=C(COc1cccnc1[N+](=O)[O-])Nc1cc(Cl)ccc1Cl	35%[activator]	19%[46.1 µM]	.	.	2%	?	.	-13%
Cc1cc(=O)oc2cc(OCC(=O)NC3CCCC3)ccc12	-6%	.	.	-2%	5%	.	.	5%
O=C(CCCn1c(=O)[nH]c2cc(Cl)ccc2c1=O)NCCC1=CCCCC1	11%	18%	13%	0%	-11%	-3%	-1.5%	18%
CCOc1ccc(C(=O)SC2=NCCS2)cc1	.	-3%	1%	-89%	-12%	-4%	3.0%	-13%
CCCNc1c(NC(=O)c2cccs2)c(=O)oc2ccccc12	-2%	.	.	-15%	-12%	.	.	1%
O=c1c2[nH]c3cccc(Cl)c3c2ncn1CCN1CCCCC1	-7%	3%	-4%	-3%	1%	-9%	-5.4%	14%
O=C(CCS(=O)(=O)c1ccccc1)Nc1ccccc1N1CCOCC1	-14%	25%	.	.	2%	?	.	0%
CS(=O)(=O)N1CCc2cc(C(=O)N3CCN(c4ccccc4F)CC3)ccc21	-7%&23%	8%[46.1 µM]	27%	24%	3%	11%&11%[46.1 µM]	-0.3%	4%
CN1CCN(NC(=O)Nc2cc(Cl)cc(Cl)c2)CC1	?	.	.	-3%	4%	.	.	4%
O=C(CSC1=NCCN1)C1COc2ccccc2O1 (stereo unspecified)	-4%	-17%	1.3µM*	8%	-7%	-25%	0.5%	-23%
O=C(CN1CCOCC1)Nc1cccc(Br)c1	19%	3%	-10%	-2%	1%	2%	-0.8%	4%
CN(C)CC(=O)c1c(N)n(Cc2ccccc2)c(=O)n(C)c1=O	-18%	-2%	.	.	22%	11%[46.1 µM]	.	0%
CCC(C)C(Nc1ncnc2scc(-c3ccccc3)c12)C(=O)O (stereo unspecified)	-5%	?	.	15%	-4%	11%[46.1 µM]	.	-3%
CC1CCN(C(=O)Cn2c(SCC(=O)Nc3ccc(F)cc3)nc3ccccc32)CC1	-14%	3%[46.1 µM]	9%	.	.	.	-1.5%	.
CN(c1ccccc1)S(=O)(=O)c1ccc(NC(=O)COc2ccccc2)cc1	?	.	.	14%	33%	.	.	-1%
COc1cccc(-n2nnc3c(=O)n(Cc4cccc(F)c4)cnc32)c1	.	?	2%	-12%	21%	-6%&-3%	-10%	2%
CC(C)c1nc2oc3c(N4CCN(C)CC4)ncnc3c2c2c1CCC2	-23%	?	-7%	6%	-23%	-22%&-22%	-10%	1%
CCn1c(NC2CCCCC2)nc2ccccc21	-10%	-7%	-2%	6%	0%	?	4.5%	8%
c1ccc(-c2noc(-c3ccccc3-c3ccccc3)n2)cc1	-2%	10%	-9%	-6%	-15%	-22%[46.1 µM]	-3.9%	-26%
COc1nc(OC)nc(N2CCC(NC(=O)C(Cc3cccc(OC)c3OC)NC(C)=O)CC2)n1 (stereo unspecified)	-11%	.	.	-3%	11%	.	.	2%
O=C1Cc2ccccc2Sc2ccccc21	-19%	-6%	-9%	6%	-10%	1%	-2.8%	-3%
CCOC(=O)c1ccccc1NC(=O)N1CCOc2ccc(Cl)cc21	-29%	8%[46.1 µM]	-7%	.	.	.	-0.3%	.
CCOc1ccc(NC(=O)Cc2ccc(NC3=NC4CS(=O)(=O)CC4S3)cc2)cc1 (stereo unspecified)	0%	.	.	0%	-7%	.	.	-4%
COc1ccc(OC)c(-c2c(=O)n(OCc3ccccc3Br)c3ccccc3[n+]2[O-])c1	-20%	?	4%	0%	1%	-3%	-3.8%	-4%
COc1ccc(CCNC(=O)C2CC(=O)N(c3ccc(Br)cc3)C2)cc1OC (stereo unspecified)	-10%	.	.	-8%	-4%	.	.	2%
COC(=O)c1[nH]c2ccc(C)cc2c1NC(=O)CN1CCN(C(=O)c2ccccc2)CC1	?	-25%	?	-24%	38%	?	9.9%	1%
C/C(=N\NC(=O)c1cc(C)nc2ccccc12)c1ccncc1	-6%	-15%[46.1 µM]	.	7%	7%	?	.	-3%
CNc1cnn(-c2ccc(C)cc2)c(=O)c1Sc1ccc(C)cc1	21%	?	.	-4%	2%	4%[46.1 µM]	.	0%
CC1(C)CC(C(=O)NCCC(c2ccccc2)c2ccco2)CCO1 (stereo unspecified)	-8%	-41%	-5%	5%	-8%	?	-7.8%	-3%
O=C(CN(Cc1ccccc1)S(=O)(=O)c1ccc(F)cc1)NCc1ccncc1	-2%	-4%[46.1 µM]	.	1%	0%	-12%[46.1 µM]	.	3%
COc1ccc(CNC(=O)CN2C(=O)C(C)N(c3ccc(C)cc3)C2=O)cc1 (stereo unspecified)	2%	-1%	10%	-3%	35%	27%	0.8%	-1%
CC(C)Nc1nc(Cl)nc(NC2CCCCC2)n1	11%	.	.	-42%	-5%	.	.	-6%
Nn1c(Cc2cccc3ccccc23)nnc1SC1CCOC1=O (stereo unspecified)	11%	-2%	-21%	-2%	-2%	3%	-2.7%	-1%
COc1cc(C(F)(F)F)nc(-c2ccccn2)n1	-8%	14%	.	1%	-4%	16%[46.1 µM]	.	-2%
CCOc1ccc(-c2nonc2NC(=O)c2oc3ccc(F)cc3c2C)cc1	3%	-5%[46.1 µM]	-9%	.	.	?	-0.2%	.
COC(=O)c1sc(S(=O)(=O)N2CCC(C(=O)O)CC2)c(C(=O)OC)c1C	20%	10%	-1%	1%	6%	6%	6.1%	0%
O=C(NCCc1ccc(F)cc1)c1cc(=O)c2ccccc2o1	-2%	?	.	.	24%	-4%[46.1 µM]	.	-2%
C[C@@H](C(=O)Nc1nc2ccccc2s1)N1C(=O)C2CC=CCC2C1=O (stereo partly specified)	4%	-14%	.	.	13%	10%	.	0%
CN1CCC(N(C)Cc2cccnc2)CC1	0%	6%	5%	4%	-5%	4%	3.3%	16%
CCN(CC(=O)Nc1ccc(NC(C)=O)cc1)C(=O)/C=C/c1ccco1	-3%	-4%	.	.	-4%	7%	.	0%
O=C(N[C@@H]1CCC(=O)N(CC[C@H](Oc2ccccc2)c2ccccc2)CC1)OCc1ccccc1	-4%	.	.	15%	-23%	.	.	-6%
CN(C)CCCN(C(=O)c1cccs1)c1nc(-c2ccccc2)cs1	-8%	-26%	-7%	1%	-7%	?	-3.1%	4%
Cc1ccc(N2CC(C(=O)Nc3ccc(S(=O)(=O)N4CCCC4)cc3)CC2=O)cc1C (stereo unspecified)	-2%	-2%[46.1 µM]	.	-1%	6%	-15%[46.1 µM]	.	2%
O=[n+]1c2c(n([O-])c3c1CCCC3)CCCCC2	-13%	10%	-5%	11%	8%	-17%	4.7%	2%
Cc1nn(-c2ccccc2)c(C)c1/C=N\NS(=O)(=O)c1ccc(Cl)cc1	41%[activator]	-8%	5%	-1%	-5%	3%	-5.6%	4%
CC1CCN(S(=O)(=O)c2cn(CC(=O)Nc3ccc(OC(F)(F)F)cc3)cn2)CC1	-14%	.	.	11%	-4%	.	.	-6%
CCC1C(=O)C[C@H]2CCN3C(=O)CCCC1C23 (stereo partly specified)	0%	.	1%	.	-6%	.	-0.3%	-6%
Cn1c(N)c(C(=O)COC(=O)C2CC(O)CN2S(=O)(=O)c2ccc(Cl)cc2)c(=O)n(C)c1=O (stereo unspecified)	1%	13%	.	-72%	-1%	1%	.	3%
O=C(NCc1nc2ccccc2[nH]1)c1ccco1	12%	24%	-7%	3%	15%	9%	-1.2%	0%
Cc1ccc(N2C(=O)C3C(c4ccccc4)(C2=O)C3(c2ccccc2)c2ccccc2)cc1 (stereo unspecified)	-19%	-16%	25µM*	2%	2%	?	3.1%	-6%
C=C(C)CN1CCN(S(=O)(=O)c2ccc(C)c(N(C)S(=O)(=O)c3ccc(C)cc3)c2C)CC1	-26%	?	-3%	-4%	-5%	?	-2.4%	-7%
COc1ccc(N(C)S(=O)(=O)c2cccc(C(=O)NCC(c3cccs3)N(C)C)c2)cc1 (stereo unspecified)	30%	0%	.	.	-16%	-12%	.	.
COc1ccc(Cl)cc1NC(=O)NCc1cccnc1	-3%	19%[46.1 µM]	.	-6%	-2%	-27%[46.1 µM]	.	-7%
O=C(OCC#CCSc1nnc(-c2ccccc2)o1)c1ccco1	28%	0%	-5%	-97%	-19%	0%	-3.8%	-7%
CC1Cc2ccccc2N1C(=O)COC(=O)c1c2c(nc3ccccc13)CCCCC2 (stereo unspecified)	-23%	?	-3%	-3%	3%	?	-5.5%	-33%

Assay outcomes as filed in PubChem.
